NPYLR7 ag = activates Aedes aegypti NPYLR7 receptor; activation, % at 10 µM; HEK293T NPYLR7/Galpha15, GCaMP6s calcium fluorescence; 270,000 compounds, 0.15% hits; AID 1259423; in the data active = activation above about 40%;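 note: 0% = vehicle and 100% = reference agonist at the receptor; some compounds past the cut are filed as inactive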
NPYLR7 ag max-min = also measured in NPYLR7 ag; calls as there; activation, %; measured here: Max-Min RFU normalised activation; some inactives read as strong as hits;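 span of the calcium signal over five minutes; 0% = vehicle and 100% = native peptide agonist; compound fluorescence can raise it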
Active calls of the source: *; & = joins results of further samples.

SMILES	NPYLR7 ag	NPYLR7 ag max-min
COc1ccccc1CS(=O)(=O)Cc1nccn1CC(F)(F)F	9.5	8.8
O=C(NCCc1ccccc1)C1C2CC3CC(C2)CC1C3 (stereo not given)	16.2	18.2
NC1=NC(/C(Cl)=C/c2ccccc2)n2c(nc3ccccc32)N1 (stereo not given)	15.1	9.6
O=C(NOCc1ccccc1)c1cc(S(=O)(=O)N2CCCCC2)ccc1N1CCOCC1	3.7	6.6
c1cncc(COC2CCN(Cc3cnc(N4CCCC4)nc3)CC2)c1	12.4	8.5
CCCCn1nc(C)c2c1NC(=O)CC2c1c(C)n(C)n(-c2ccccc2)c1=O (stereo not given)	7.1	4.2
CNC(=O)CCN(C)c1cc(C2CCCNC2)nc(C)n1 (stereo not given)	-1.1	3.1
CCOC(=NCCCN(C)C)NC(=O)c1ccccc1C	-5.6	-5.9
Cc1csc(Sc2nc3cc(C)nn3c3ccccc23)n1	6.8	13.6
COc1ccc(CN(CCc2c[nH]c3ccccc23)C(=O)CN(C2CC2)S(=O)(=O)c2c(C)cc(C)cc2C)cc1OC	17.8	12.5
Cc1ocnc1C(=O)NC1CCCN(Cc2ccccc2F)C1 (stereo not given)	6.6	-0.2
CS(=O)(=O)Nc1cc(F)ccc1C(=O)O	-5.5	-6.0
OCCOc1ccccc1-c1nccn1C1CCCc2ccccc21 (stereo not given)	-1.0	-2.3
COc1ccc(S(=O)(=O)N2CCC(Cc3ccccc3)CC2)cc1N1CCN(C(=O)c2cc(C)on2)CC1	-3.3	2.4
COc1ccc(CN2C3CCC2CC(NS(=O)(=O)c2ccc(C#N)cc2)C3)c(OC)c1 (stereo not given)	-7.6	-11.3
O=C(c1nn(-c2cccc(Cl)c2)c(=O)n(Cc2ccccc2F)c1=O)N1CCCC1	-2.1	6.6
c1ccc2c(c1)nc(N1CCCC1)c1nncn12	0.7	-0.5
CC(C)CN(CC(=O)N(Cc1ccccc1)Cc1cccn1Cc1ccc(F)cc1)S(=O)(=O)c1ccc(Br)cc1	2.1	14.4
CCCN1C(=O)CC(N2CCOCC2)C1=O (stereo not given)	-9.8	-16.7
Cc1ccccc1-n1c(SCc2c(F)cccc2F)nnc1-c1ccc(F)cc1	-5.0	2.3
Cc1cccc(C)c1NC(=O)C[N+](C)(C)C	3.9	-34.3
O=C(Nc1cccc(C2SCC(=O)N2c2ccc3c(c2)OCO3)c1)C1CCCCC1 (stereo not given)	-5.4	1.0
Cc1cc(OC(=O)c2ccco2)c([N+](=O)[O-])c(=O)[nH]1	-5.3	-6.1
CCc1nnc(CN2CCN(CC3CC3)c3ccccc32)o1	4.6	2.8
Cc1nccc(-c2cccc(-n3ccnc3-c3ccccc3OCCO)c2)n1	-3.5	-3.7

Filtered by structure: those above with nitrogen in an aromatic ring (17)
SMILES	NPYLR7 ag	NPYLR7 ag max-min
COc1ccccc1CS(=O)(=O)Cc1nccn1CC(F)(F)F	9.5	8.8
NC1=NC(/C(Cl)=C/c2ccccc2)n2c(nc3ccccc32)N1 (stereo not given)	15.1	9.6
c1cncc(COC2CCN(Cc3cnc(N4CCCC4)nc3)CC2)c1	12.4	8.5
CCCCn1nc(C)c2c1NC(=O)CC2c1c(C)n(C)n(-c2ccccc2)c1=O (stereo not given)	7.1	4.2
CNC(=O)CCN(C)c1cc(C2CCCNC2)nc(C)n1 (stereo not given)	-1.1	3.1
Cc1csc(Sc2nc3cc(C)nn3c3ccccc23)n1	6.8	13.6
COc1ccc(CN(CCc2c[nH]c3ccccc23)C(=O)CN(C2CC2)S(=O)(=O)c2c(C)cc(C)cc2C)cc1OC	17.8	12.5
Cc1ocnc1C(=O)NC1CCCN(Cc2ccccc2F)C1 (stereo not given)	6.6	-0.2
OCCOc1ccccc1-c1nccn1C1CCCc2ccccc21 (stereo not given)	-1.0	-2.3
COc1ccc(S(=O)(=O)N2CCC(Cc3ccccc3)CC2)cc1N1CCN(C(=O)c2cc(C)on2)CC1	-3.3	2.4
O=C(c1nn(-c2cccc(Cl)c2)c(=O)n(Cc2ccccc2F)c1=O)N1CCCC1	-2.1	6.6
c1ccc2c(c1)nc(N1CCCC1)c1nncn12	0.7	-0.5
CC(C)CN(CC(=O)N(Cc1ccccc1)Cc1cccn1Cc1ccc(F)cc1)S(=O)(=O)c1ccc(Br)cc1	2.1	14.4
Cc1ccccc1-n1c(SCc2c(F)cccc2F)nnc1-c1ccc(F)cc1	-5.0	2.3
Cc1cc(OC(=O)c2ccco2)c([N+](=O)[O-])c(=O)[nH]1	-5.3	-6.1
CCc1nnc(CN2CCN(CC3CC3)c3ccccc32)o1	4.6	2.8
Cc1nccc(-c2cccc(-n3ccnc3-c3ccccc3OCCO)c2)n1	-3.5	-3.7

Continued.
SMILES	NPYLR7 ag	NPYLR7 ag max-min
COCCOc1ccc(NC(=O)c2cc(Cl)c(Cl)n2C)cc1F	16.0	15.2
Cc1cnccc1CN1CC(C(=O)O)CC1=O (stereo not given)	1.8	-1.3
COc1ccc(Cl)cc1NC(=O)Cn1nc(SC)c(-c2nc(-c3cccc(C)c3)no2)c1N	0.9	-1.6
Cc1cc(C)nc(SCc2cc(=O)c(OC(=O)Cc3cccs3)co2)n1	-22.1	-1.4
CCC(=O)NNC(=O)COc1ccc(C(C)(C)CC(C)(C)C)cc1	-2.5	-5.4
CN(CC1CCOC1)C(=O)Nc1ccccc1N(C)C1CCCC1 (stereo not given)	5.4	0.3
O=C(OCc1nc(C(=O)NCCc2cccc(Cl)c2)cs1)c1ccccc1	-4.5	-11.0
O=C(O)c1cccc(CSc2nc(-c3ccccc3)cc(N3CCN(Cc4ccc5c(c4)OCO5)CC3)n2)c1	7.0	10.8
COc1ccc(C(=O)NC2CCCc3ccccc32)cc1S(=O)(=O)N1CCOCC1 (stereo not given)	-1.8	10.4
CC1CN(C(C(N)=O)c2ccccc2)CC(c2ccccc2)O1 (stereo not given)	2.1	1.0
COC(=O)C1CCN(C(=O)CN2CCCCC2C(O)c2ccccc2)CC1 (stereo not given)	3.8	1.9
CCN(Cc1ccccn1)CC1CCCN(CCc2cccc(F)c2)C1 (stereo not given)	1.8	-0.5
Cc1cc(=O)n2c(n1)SCC2CC(=O)NC(C)C (stereo not given)	0.7	0.0
Cc1ccc(Cc2nc(N3CCN(Cc4cccs4)CC3)c3c(C)nn(-c4ccc(F)cc4)c3n2)cc1	-4.6	0.4
COc1cc(OC)cc(-c2cc3c(Nc4ccc(NC(C)=O)cc4)nccc3n2C)c1	-8.8	-12.7
O=C1NCCN(C2Cc3ccccc3C2)C1CC(=O)N1CC=C(c2ccccc2)CC1 (stereo not given)	2.9	1.9
CCOCC(O)CN(CC(=O)N1CCc2sccc2C1COc1cccc(F)c1)Cc1ccco1 (stereo not given)	2.5	10.5
O=C(Cn1cnnn1)N1CCOC(COCc2ccc(F)cc2Cl)C1 (stereo not given)	12.4	17.7
O=S(=O)(c1c(F)cccc1F)N1CCN(C(c2ccccc2)c2ccc(Br)cc2)CC1 (stereo not given)	27.1	17.7
O=C(CN1C(=O)CSc2ccccc21)Nc1ccc(F)c(F)c1F	18.0	7.4
CC(C)(CCl)C(=O)Nc1ccc(N2CCCC2)c(C(=O)NCCc2ccccc2)c1	5.2&6.3	4.5&14.1
O=C(COc1ccccc1Cl)N(c1nccs1)C1CCCCC1	1.3	0.3
CC(C)CCNC(=O)c1cc2c(=O)n(C)c(=O)n(C)c2n1Cc1ccccc1	-1.4	-1.9
COC(=O)CNC(=O)c1ccc(NC(=O)N2CCCC2Cc2ccccc2)cc1 (stereo not given)	5.0	4.2
COc1ccc(CCC2CCCN(C(=O)CSc3ccccn3)C2)cc1 (stereo not given)	20.3	11.8

(further entries)
SMILES	NPYLR7 ag	NPYLR7 ag max-min
Cc1cc(=O)oc2c(C)c(O)c(-c3ccn[nH]3)cc12	0.5	-8.4
COc1ccc(CC(=O)N2CCCC(Nc3ccccc3)C2)cc1 (stereo not given)	4.8&1.2	4.0&-2.5
Cn1c(CSc2cccc(Cl)c2)nnc1C1CC1	7.9	5.9
Brc1ccc(CSc2nnc(-c3ccc4c(c3)OCO4)o2)cc1	3.9	3.2
O=C(c1cn(-c2ccccc2Cl)nn1)N1CCN(CCO)CC1	-20.8	-25.6
CC(CN1CCOC1=O)NC(=O)Nc1ccc(S(=O)(=O)N(C)C)cc1 (stereo not given)	14.4	11.0
CCCCn1ncc(C)c1NC(=O)Cc1ccc2c(c1)OCO2	6.8	3.0
NC1CCCN(C2Cc3ccccc3C2)C1 (stereo not given)	10.5	7.0
Cc1ccc(-c2c(C)sc3nc(CN(C)Cc4ccccc4C)[nH]c(=O)c23)cc1	13.0	16.1
CCN(CC)c1onc(-c2ccccc2)c1CN(CCN(C)C)C(=O)c1ccco1	8.1	6.4
CC(C)(NC(=O)c1cccs1)C(=O)NCCSc1cn[nH]n1	5.4	1.5
COC(=O)CSc1sc(=O)sc1SCC#N	3.4	4.4
COc1ccccc1N1C(=O)NC2CC1(C)Oc1c(OC)cc(Br)cc12 (stereo not given)	-2.9	-0.3
CCOC(=O)C(Cc1cc(N2CCN(S(=O)(=O)c3c(Cl)cccc3Cl)CC2)ccc1Cl)OC (stereo not given)	2.5	8.0
CCN(C(C)=O)C1CCN(c2ncnc3sc4c(c23)CCNC4)C1 (stereo not given)	11.2	8.3
CCN(C(=O)CC12CC3CC(CC(C3)C1)C2)C1CCOCC1	-1.2	-5.8
C#Cc1cccc(N(C(C)C)S(=O)(=O)c2ncn(C)c2Cl)c1	1.0	-0.1
C=CCN1C(=O)C(=Cc2ccccn2)SC1=S	7.4	6.2
COCc1nc(-c2cccc(CN3CCN(C(=O)COCc4ccccc4)CC3)c2)no1	2.3	6.3
O=C(NC1CCCc2ccccc21)c1ccc(-c2cc(-c3ccc(Cl)cc3Cl)[nH]n2)cc1 (stereo not given)	1.8	1.8
CCOc1ccccc1NC(=O)N(CCN1CCOCC1)CC(=O)N(CCc1ccccc1)Cc1ccco1	13.0	15.8
COc1ccc(OC)c(S(=O)(=O)Nc2cc(Cl)ccc2C(=O)NCc2ccccc2)c1	21.1	21.3
N#Cc1cccc(CN2C(=O)C3(SCCN3C(=O)C3CCCC3)c3cc(F)ccc32)c1 (stereo not given)	-2.5	-0.8
C=CCN(C#N)c1nc(N2CCCCC2)nc(N2CCCCC2)n1	-0.8	-2.1
CCOc1ccc(Cc2nnc(Nc3ccccc3C)[nH]c2=O)cc1	11.3	5.7

Next structures
SMILES	NPYLR7 ag	NPYLR7 ag max-min
CN1CCCC1CCNc1c2c(nc3ncnn13)CCC2 (stereo not given)	2.8	1.7
COCC(=O)Nc1ccc(N(C)C)c(CN(Cc2ccc(F)cc2)C(=O)c2ccccc2Cl)c1	0.7	14.9
COc1cc(Cn2nc(-c3cccs3)c3sc(N4CCCCC4)nc3c2=O)cc(OC)c1	0.8	-6.0
COc1ccc(CC(=O)N2CCN(c3nc(CCC(C)C)nc4c3cnn4-c3cccc(Cl)c3)CC2)cc1	17.3	12.6
CC1CN(C(=O)CSCc2nc3sc4c(c3c(=O)[nH]2)CCC4)CCO1 (stereo not given)	10.5	6.3
O=c1cc(-c2ccccc2)[nH]n1-c1ccccc1S(=O)(=O)O	0.5	-2.8
CCCCCNC(=O)CC(c1ccc(OC)cc1)c1cn(C)c2ccccc12 (stereo not given)	-3.6	-0.7
Cc1nnc(CN(C)C(=O)c2csc3nc(-c4ccccc4Cl)cn23)o1	-1.2	-5.8
Cc1cc(C(=O)N(CCN(C)C)c2nc3c(F)cccc3s2)nn1C	2.9	0.9
O=C(NCc1ccco1)NC1CC(=O)N(CCCc2ccccc2)C1 (stereo not given)	1.4	-1.0
O=C(Nc1c(Cl)cccc1Cl)N1CCC2(CC1)SCCN2C(=O)c1ccc(Cl)c(Cl)c1	-6.7	-6.0
CC(C)(C)c1nnc2sc(SCC(=O)c3c[nH]c4ccccc34)nn2c1=O	-1.8	-1.7
O=C(Cc1cc(-c2cc3ccccc3o2)on1)Nc1ccon1	10.8	13.2
N#Cc1ccccc1CNc1ccc(F)c(Cl)c1	0.1	-2.0
CC(C)NCC(=O)N1c2ccccc2-n2cccc2C1c1ccc(Cl)cc1 (stereo not given)	-7.8	4.8
CC1=NN(c2cccc(C(=O)O)c2)C(=O)/C1=C\c1ccc2c(c1)OCO2	-2.3	-6.7
Cc1ccc2nc(NC(=O)/C=C/c3ccccc3)sc2c1	-2.3	-9.1
COc1cc(NC(=O)N2CCc3ccccc3C2c2ccc(C)cc2)cc(OC)c1OC (stereo not given)	24.6	13.7
CC(NC(=O)c1ccc(-c2cc(Cl)ccc2Cl)o1)C(N)=O (stereo not given)	-9.1	-7.2

Two entries picked at random from the list so far:
SMILES	NPYLR7 ag	NPYLR7 ag max-min
CC1CN(C(C(N)=O)c2ccccc2)CC(c2ccccc2)O1 (stereo not given)	2.1	1.0
CC1=NN(c2cccc(C(=O)O)c2)C(=O)/C1=C\c1ccc2c(c1)OCO2	-2.3	-6.7

From PubChem

An excerpt (hit frequency here may not be typical).
